GLA inh pH 4.5 = inhibitors of human alpha-galactosidase A at pH 4.5; P06280; purified enzyme, 4-MU-alpha-Gal fluorescence, pH 4.5; activity change, negative = inhibition, % at 105 µM; 230,000 tested, under 10 active; inconclusive = small, poorly fitted or top-dose-only inhibition, or a rising curve; inactive = flat fitted curve, though single readings scatter; no compound was filed as active;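 also: 0% = full activity with enzyme and -100% = basal without enzyme; dose as in the result columns while the protocol names 77 µM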
miR-21 reporter = raises the signal of a miR-21 reporter | HeLa miR-21 FLuc reporter, luciferase, 48 h | Potency, µM (series often up to 38.3 µM), inactives show at the top dose reporter change, positive = more light | 340,000 tested, under 10 active; active = well fitted rising curve with a large enough effect; inconclusive = small, poorly fitted or top-dose-only effect; inactive = no such curve, though single readings can be large or run the other way;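 also: % of control where 0% means no effect; miR-21 action dims this reporter so a rising signal means less miR-21 action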
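Luminescence from a firefly luciferase reporter carrying a miR-21 binding site downstream, stably expressed under a CMV promoter in HeLa cells that make miR-21 endogenously, reports miRNA modulation after 48 h compound exposure up to approximately 40uM final.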
Rango-impB inh = Rango-importin beta binding inhibition | Q14974 | Rango CFP/YFP FRET sensor + importin beta, 45 min | Potency, µM (doses to about 92.2 µM), for the others: at the top dose inhibition of complex formation | hit rate 0.031% among 340,000 | AID 540263; active = rising FRET ratio curve, often small or poorly fitted; inconclusive = mostly compound fluorescence or quenching in the first reads; inactive = flat curves in all reads;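 also: potency is read from the fitted curve at half-maximal effect; 0% = DMSO wells and 100% = buffer wells lacking importin beta; nearly all actives have a fitted effect of over 15% in size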
Target sequence (Q14974 whole entry, looked up): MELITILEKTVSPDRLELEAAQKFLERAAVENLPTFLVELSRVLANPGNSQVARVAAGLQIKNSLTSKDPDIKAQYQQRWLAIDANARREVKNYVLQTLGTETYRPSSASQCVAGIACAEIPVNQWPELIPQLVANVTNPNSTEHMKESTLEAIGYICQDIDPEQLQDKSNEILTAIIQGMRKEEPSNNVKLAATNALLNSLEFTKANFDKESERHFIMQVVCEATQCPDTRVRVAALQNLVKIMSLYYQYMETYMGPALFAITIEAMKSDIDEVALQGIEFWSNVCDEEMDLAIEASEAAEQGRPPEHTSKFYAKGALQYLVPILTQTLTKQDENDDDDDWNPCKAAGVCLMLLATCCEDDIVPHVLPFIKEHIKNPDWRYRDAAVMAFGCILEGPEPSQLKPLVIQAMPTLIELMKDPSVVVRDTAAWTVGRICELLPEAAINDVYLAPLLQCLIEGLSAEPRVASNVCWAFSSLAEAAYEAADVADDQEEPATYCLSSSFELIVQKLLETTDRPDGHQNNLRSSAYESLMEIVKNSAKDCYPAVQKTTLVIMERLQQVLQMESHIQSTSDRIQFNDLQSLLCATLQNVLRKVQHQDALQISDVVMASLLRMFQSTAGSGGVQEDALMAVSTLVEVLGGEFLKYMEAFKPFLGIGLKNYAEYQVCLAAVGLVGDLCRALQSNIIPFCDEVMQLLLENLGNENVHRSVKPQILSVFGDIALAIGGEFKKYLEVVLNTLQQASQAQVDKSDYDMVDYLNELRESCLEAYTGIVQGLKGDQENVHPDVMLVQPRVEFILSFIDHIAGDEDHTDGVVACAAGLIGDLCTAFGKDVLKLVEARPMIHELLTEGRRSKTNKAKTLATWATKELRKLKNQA
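Inhibition scored from the CFP 486 nm/YFP 530 nm FRET ratio 45 min after adding 0.125 microM importin beta to 50 nM Rango biosensor preincubated 5 min with compound (room temperature, PBS with DTT, Tween-20, BSA). No-importin wells as positive control.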
Rango dissoc inh = inhibition of RanGTP-driven Rango-importin beta dissociation. hit rate 0.071% among 340,000. AID 540253. O95149+P62826. Potency, µM (top dose mostly 46.1 µM), inactives show at the highest dose activity change, negative = inhibition. Biochemical FRET Rango-importin beta, RanGTP-induced dissociation; active means falling FRET ratio curve, often poorly fitted, with flat reads before Ran was added; inconclusive means other falling curves, or compound fluorescence or quenching; inactive means flat or rising ratio curve;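 also: potency is read from the fitted curve at half-maximal effect; % of control where 0% means no effect; nearly all actives have a fitted effect of over 45% in size; -100% = wells without RanGTP and RCC1; the record marks most hits as doubtful in a second field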
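Compounds preincubate 5 min with complex of recombinant Rango and importin beta in PBS with 1 mM DTT. Ran (0.6 uM) loaded with 2 mM GTP plus 0.2 uM RCC1 starts dissociation; FRET is recorded 45 min later.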
* = called active by the depositor; ? = inconclusive; . = no result given; & = joins results of further samples. This is a subset (hit frequency here may not be typical).

Results follow in this order: GLA inh pH 4.5, miR-21 reporter, Rango-impB inh, Rango dissoc inh
CC1(C)c2[nH]c3ccccc3c2C[C@@H]2C(=O)N(c3ccc(F)cc3F)C(=O)N21
 : ., ., ?, ?
Nn1c(SCC(=O)NCc2ccc3c(c2)OCO3)nnc1C1CC1
 : -5, -2%, -0.1%, -13%
Cn1c(SCC(=O)N2CCOCC2)nc2c(c1=O)SCC2
 : ., 1%, 1.7%, 10%
COc1ccc(C(=O)N=C2SC3CS(=O)(=O)CC3N2c2ccc(N(C)C)cc2)cc1OC (configuration not stated)
 : ., -14%, ?, ?
Cc1ccccc1Oc1nc2ccccn2c(=O)c1/C=C(\C#N)C(=O)Nc1c(C)n(C)n(-c2ccccc2)c1=O
 : -12, -6%, -0.2%, 17%
COc1ncnc2sc(-c3ccccc3)cc12
 : -10, -58%, 0.0%, 0%
N#Cc1ccccc1NC(=O)CSc1nnc(-c2ccncc2)o1
 : 1, -1%, -1.0%, -4%
O=C(NCc1cc([N+](=O)[O-])ccc1O)c1cccnc1Sc1ccc(Cl)cc1
 : ., -13%, -0.1%, -4%
COC(=O)CCSc1nc(N2CCOCC2)c2c(c1C#N)CC(C)(C)OC2
 : ., -4%, 16%, 6%
CCCc1cc(C(N)=O)c(NC(C)=O)s1
 : -4, 9%, -8.9%, -8%
COc1cccc(C2C3=C(CCCC3=O)Nc3nc(-c4cc(OC)c(OC)c(OC)c4)nn32)c1 (configuration not stated)
 : 17, -7%, -2.5%, 1%
O=C(Cn1nnc(-c2ccccc2)n1)N/N=C/c1ccco1
 : 1, -2%, -1.8%, -3%
Cc1cc(N2CCOCC2)nc(-c2ccc([N+](=O)[O-])cc2)n1
 : -4, -7%, -0.2%, -10%
O=C(CSc1nnc(SCc2ccc(Cl)cc2)s1)N1CCOCC1
 : 4, -2%, ?, -1%
O=C(N/N=C/c1cc2c(cc1Cl)OCO2)c1ccncc1
 : 8, -11%, 0.4%, 0%
Oc1ccccc1-c1nnc(-c2ccc(C(F)(F)F)cc2)o1
 : 0, -31%, -1.0%, -17%
CC1(OC(=O)C2CCCC2)C(=O)C=C2C=C(c3ccsc3)N(C(CO)CO)C=C2C1=O (configuration not stated)
 : 6&-9, -1%, ?, -29%
CC(=O)c1cccc(NC(=O)C2CCCN(S(=O)(=O)c3ccccc3)C2)c1 (configuration not stated)
 : -6, 1%, 1.2%, 4%
O=C(COC(=O)/C=C/c1ccco1)Nc1cccc([N+](=O)[O-])c1
 : -2, -11%, -0.7%, -10%
CC(=O)N/C(=C\c1ccccc1)C(=O)NC(C)C(=O)O (configuration not stated)
 : 5, -1%, ?, -9%
Cc1cc(C)n(-c2ccc(C(=O)NC(C)C)cc2)n1
 : -19, -9%, 0.2%, 2%
CC(C)(OC(=O)c1ccc(C(F)(F)F)cc1)c1cc2ccccc2c(=O)o1
 : ., ., 3.3%, 39%
CN(C/C=C/c1ccccc1)C1CCCCC1
 : -9, -2%, 1.3%, 8%
CCCCC(=O)Nc1ccc(N2CCN(c3ccc(F)cc3)CC2)cc1
 : ., 1%, 0.9%, -5%
CCCCN(Cc1ccco1)S(=O)(=O)c1c[nH]c(C(=O)OC)c1
 : ., 13%, -0.2%, -8%
Oc1ccc(F)cc1-c1cc(-c2ccc3c(c2)OCCO3)n[nH]1
 : -3, -6%, -7.0%, -7%
Clc1ccc(-c2csc(=Nc3cccnc3)n2CCCn2ccnc2)cc1Cl
 : 9, ?, -5.1%, -1%
Clc1ccc(Cn2c(-c3cccnc3Cl)nc3ccccc32)cc1
 : -5, -7%, 3.4%, 9%
CCN1C(=O)CC(c2ccc(OC(C)C)cc2)C1=O (configuration not stated)
 : ., -11%, -2.0%, 16%
O=C(O)C(=Cc1ccccc1)Cc1ccccc1
 : ., ., 8.6%, 10%
CCOC(=O)c1cnc(SCc2nc(N)nc(Nc3ccccc3)n2)nc1N
 : 0, -2%, -2.7%, -2%
O=C(c1ccccc1)N1CCN(C(=O)c2nn3c(C(F)(F)F)cc(-c4ccco4)nc3c2Cl)CC1
 : ., -5%, ?, 25%
O=C(NCC(c1ccco1)N1CCN(c2ccccc2F)CC1)OCc1ccccc1 (configuration not stated)
 : 13, 4%, 0.6%, -1%
O=C(Nc1n[nH]c(C2CCCCC2)n1)C1CCCCC1
 : -2, -13%, 0.4%, -9%
CCCCCNC(=O)c1cccnc1SCC(=O)Nc1ccccc1OC
 : -9, -19%, 3.3%, 0%
CNc1nc2sc3c(c2c(=O)n1C)CC(C)(C)SC3
 : 21, -17%, -1.0%, -7%
CCN(CC)CCCn1c2c(c(SCC(=O)Nc3nc(C)cs3)nc1=O)CCC2
 : ., ., -3.7%, 0%
Cn1c(N)c(C(=O)COC(=O)CCC2CCCCC2)c(=O)n(C)c1=O
 : 0, 0%, 4.1%, -12%
O=C(c1ccco1)N1CCC(c2nc3c(nnn3Cc3ccccc3Cl)c(=O)[nH]2)CC1
 : ., -9%, -3.0%, -6%
CCc1c(C)nc2ncnn2c1N1CCC(C(=O)Nc2ccc(C)cc2)CC1
 : 7, 27%, -0.2%, -3%
Cc1nc(C(=O)Nc2ccccc2)sc1C(=O)Nc1ccccc1
 : -2, -54%, 0.4%, 19%
CCCCOc1ccc(C(=O)N/C(=C\c2ccc(OC)cc2)C(=O)OCc2ccco2)cc1
 : -2, 7%, ?, 14%
CC1Cc2ccccc2N1CC(=O)c1c(N)n(Cc2ccccc2)c(=O)n(C)c1=O (configuration not stated)
 : -8, 9%, 3.7%, -7%
O=C1C(=O)N(CCN2CCOCC2)C(c2ccc(Cl)c(Cl)c2)/C1=C(/O)c1ccc2c(c1)OCO2 (configuration not stated)
 : ., -5%, -0.3%, -5%
CCN(Cc1ccncc1)C(=O)c1cc(COc2c(C)cccc2C)on1
 : ., -11%, 2.9%, -3%
C[C@H]1CN([C@@H](C)CO)C(=O)c2cc(NS(=O)(=O)c3ccc(Cl)cc3)ccc2O[C@@H]1CN(C)CC1CCCCC1
 : ., ., 3.4%, -1%
Cc1ccc2nc(-c3ccncc3)c(NC3CCCCC3)n2c1
 : -12, -5%, -1.4%, 4%
Cc1cc(NC(=O)NN2CCOCC2)nn1-c1c(Cl)cc(Cl)cc1Cl
 : -3, 1%, -0.8%, 12%
CCOc1cc2[nH]c(=O)n(CCC(=O)NCCc3ccc(OC)c(OC)c3)c(=O)c2cc1OCC
 : 4, -7%, -2.9%, -9%
CCOc1cc(/C=N/NC(=O)C(=O)Nc2cc(Cl)ccc2C)ccc1O
 : -1, -6%, -0.1%, 2%
C=CCNc1cc(N2CCCC2)ccc1[N+](=O)[O-]
 : 3, -16%, -3.1%, 1%
CCOC(=O)N/N=C/c1c(F)cccc1F
 : 5, -50%, -3.1%, -10%
Cc1ccc(S(=O)(=O)c2nc(C(C)(C)C)oc2N2CCOCC2)cc1
 : 7, 0%, -3.4%, 8%
Cc1cc(CCNC=O)c(C)c2c1oc1ccccc12
 : ., ., -1.4%, -13%
CC(C)CNC(=O)COC(=O)c1cc(S(=O)(=O)N(C)C)ccc1N1CCCC1
 : 5, -13%, -2.8%, -2%
Cc1c(NC(=O)Nc2c(Cl)cccc2Cl)c(=O)n(-c2ccccc2)n1C
 : 5, 2%, -1.2%, 4%
CCOC(=O)C1(CCCc2ccccc2)CCN(S(=O)(=O)N(C)C)CC1
 : ., 14%, -0.5%, -2%
CC(=O)c1cccc(CN2CCCCC2C(=O)Nc2ccc(Oc3ccccc3)nc2)c1 (configuration not stated)
 : ., 8%, 0.7%, 0%
CCN(c1ccc(NC(=O)COC(=O)c2cc3ccccc3oc2=O)cc1)C(C)C
 : 5, -6%, -3.1%, 1%
O=C(/C=C\Nc1ccc2c(c1)OCO2)c1cccs1
 : 6, 4%, ?, ?

Next section:
Results follow in this order: GLA inh pH 4.5, miR-21 reporter, Rango-impB inh, Rango dissoc inh
O=C(CCc1ccccc1)NCC1(c2ccccc2)CCCC1
 : ., 2%, -1.1%, 4%
CCOC(=O)NNC(=O)C1CCC(C)CC1 (configuration not stated)
 : -4, -5%&-7%, ?, -5%
CCN(CC(=O)Nc1ccccc1OC)C(=O)c1ccc(NS(=O)(=O)c2ccc(C(C)=O)cc2)cc1
 : ., -2%, 0.7%, 1%
CC(=O)c1ccc(Nc2nc(-c3ccccc3)nc3ccccc23)cc1
 : ., ., -1.2%, 9%
Cc1ccc(C)c2[nH]c(=O)c(CN(Cc3ccco3)C(=S)NCC3CCCO3)cc12 (configuration not stated)
 : -2, 0%, 1.4%, -4%
Cc1ccc2c(C)c(C(=O)Nc3cccnc3)oc2c1
 : 4, -20%, -2.2%, 5%
COc1ccc(C(=O)NCC(=O)NCC2COc3ccccc3O2)cc1 (configuration not stated)
 : 0, 0%, 1.2%, -1%
OC(CN=c1sc2ccccc2n1CC(O)COc1ccccc1)COc1ccccc1 (configuration not stated)
 : -21, ?, 3.4%, -2%
O=C(COC(=O)c1ccccn1)NC1CCCCC1
 : -2, -7%, -1.2%, -21%
CC1CN(C(=O)C(C)Sc2nnnn2C)CC(C)O1 (configuration not stated)
 : 3, 2%, -6.2%, -3%
O=C(OCC(=O)N1CCN(C(=O)c2ccco2)CC1)c1cc(F)c(F)cc1Cl
 : ., ., -3.2%, 8%
CCc1[nH]nc2c1C(c1ccsc1)C(C#N)=C(N)O2 (configuration not stated)
 : 6, 0%, -1.9%, 2%
CS(=O)(=O)c1ccccc1-c1nnc(NC(=O)Cc2ccccc2)o1
 : ., 0%, 0.1%, 21%
COCC1CCCCN1C(=O)c1ccc(OC2CCN(CCc3ccccc3)CC2)cc1 (configuration not stated)
 : ., -5%, -1.0%, -4%
CN(c1ccccc1)S(=O)(=O)c1cccc(NC(=O)Cn2cnc3ccccc3c2=O)c1
 : -6, 1%, 3.3%, 4%
Cc1ccccc1N1CC(O)(c2ccccc2)[N+]2=C1SCC2 (configuration not stated)
 : 0, -2%, 1.3%, 5%
COc1ccc(NC(=O)CCNC(=O)c2ccccc2)cc1S(N)(=O)=O
 : ., -2%, -3.4%, 0%
Cc1ccc2c(c1)[C@H]1[C@H](CO2)[C@H](c2ccccc2)[C@]2(C)C(=O)Nc3cc(F)ccc3C(=O)N12
 : ., ., -0.2%, 2%

Grouped by structure, those above containing fluorine (ten)
Results follow in this order: GLA inh pH 4.5, miR-21 reporter, Rango-impB inh, Rango dissoc inh
CC1(C)c2[nH]c3ccccc3c2C[C@@H]2C(=O)N(c3ccc(F)cc3F)C(=O)N21
 : ., ., ?, ?
Oc1ccccc1-c1nnc(-c2ccc(C(F)(F)F)cc2)o1
 : 0, -31%, -1.0%, -17%
CC(C)(OC(=O)c1ccc(C(F)(F)F)cc1)c1cc2ccccc2c(=O)o1
 : ., ., 3.3%, 39%
CCCCC(=O)Nc1ccc(N2CCN(c3ccc(F)cc3)CC2)cc1
 : ., 1%, 0.9%, -5%
Oc1ccc(F)cc1-c1cc(-c2ccc3c(c2)OCCO3)n[nH]1
 : -3, -6%, -7.0%, -7%
O=C(c1ccccc1)N1CCN(C(=O)c2nn3c(C(F)(F)F)cc(-c4ccco4)nc3c2Cl)CC1
 : ., -5%, ?, 25%
O=C(NCC(c1ccco1)N1CCN(c2ccccc2F)CC1)OCc1ccccc1 (configuration not stated)
 : 13, 4%, 0.6%, -1%
CCOC(=O)N/N=C/c1c(F)cccc1F
 : 5, -50%, -3.1%, -10%
O=C(OCC(=O)N1CCN(C(=O)c2ccco2)CC1)c1cc(F)c(F)cc1Cl
 : ., ., -3.2%, 8%
Cc1ccc2c(c1)[C@H]1[C@H](CO2)[C@H](c2ccccc2)[C@]2(C)C(=O)Nc3cc(F)ccc3C(=O)N12
 : ., ., -0.2%, 2%

Assay outcomes from PubChem BioAssay.
